Bioassay records as filed in PubChem.
Mtb growth: M. tuberculosis H37Rv growth inhibitors, H37Rv strain (AID 1626); inhibition, % at 10 µM, or IC50 in µM where a hit was titrated; M. tuberculosis H37Rv growth inhibition; higher % means a stronger effect; 0.95% of 220,000 active;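 active = confirmed in a dose series; inconclusive = inhibition above 80% but not taken into the dose series; inactive = below 80% or under 30% at every dose of the series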;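 note: bacteria incubated seven days before Alamar blue readout; 0% = bacteria only wells and 100% = bacteria with antibiotic wells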
Mtb bLac sens: beta-lactam sensitization of Mtb H37Rv, H37Rv; M. tuberculosis H37Rv growth with meropenem, percent inhibition; hits of this screen are not shown here; inhibition, % at 25 µM; 0.27% of 330,000 active; AID 434955, 2010;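 active = about 74% or more and at least 40 points above the plate without the antibiotic, then above 30% in a dose series; inconclusive = first-round hits that could not be retested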;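 note: growth measured after seven days incubation then overnight dye step; 0% = bacteria only wells and 100% = bacteria with antibiotic; twin plates without the antibiotic show which effects depend on it; some results filed as inactive read as strong as hits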
YopH inh: YopH tyrosine phosphatase inhibitors, primary screen, biochemical, fluorescence Ex485/Em525; YopH tyrosine phosphatase [Yersinia enterocolitica]; inhibition, %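 (about 10 µM by stock and volumes)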; 0.16% of 140,000 active;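 active = inhibition of 50% or more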;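 note: controls were vehicle for no effect and minimum signal wells for full effect; inactives centre near -20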
RecA intein inh: Mtb RecA intein splicing inhibitors, primary screen, biochemical, fluorescence, HTS. AID 2221, 2009. inhibition, %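 (about 9 µM by stock and volumes)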. Protein RecA (Mycobacterium tuberculosis (strain ATCC 25618 / H37Rv)), P9WHJ3. 0.75% of 290,000 active. cell-free RecA intein splicing; in the data active = inhibition above about 30%; inconclusive = no clear call, values can overlap the other calls;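 note: 0% = vehicle wells and 100% = reference inhibitor control wells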
Target sequence (P9WHJ3 whole entry, looked up): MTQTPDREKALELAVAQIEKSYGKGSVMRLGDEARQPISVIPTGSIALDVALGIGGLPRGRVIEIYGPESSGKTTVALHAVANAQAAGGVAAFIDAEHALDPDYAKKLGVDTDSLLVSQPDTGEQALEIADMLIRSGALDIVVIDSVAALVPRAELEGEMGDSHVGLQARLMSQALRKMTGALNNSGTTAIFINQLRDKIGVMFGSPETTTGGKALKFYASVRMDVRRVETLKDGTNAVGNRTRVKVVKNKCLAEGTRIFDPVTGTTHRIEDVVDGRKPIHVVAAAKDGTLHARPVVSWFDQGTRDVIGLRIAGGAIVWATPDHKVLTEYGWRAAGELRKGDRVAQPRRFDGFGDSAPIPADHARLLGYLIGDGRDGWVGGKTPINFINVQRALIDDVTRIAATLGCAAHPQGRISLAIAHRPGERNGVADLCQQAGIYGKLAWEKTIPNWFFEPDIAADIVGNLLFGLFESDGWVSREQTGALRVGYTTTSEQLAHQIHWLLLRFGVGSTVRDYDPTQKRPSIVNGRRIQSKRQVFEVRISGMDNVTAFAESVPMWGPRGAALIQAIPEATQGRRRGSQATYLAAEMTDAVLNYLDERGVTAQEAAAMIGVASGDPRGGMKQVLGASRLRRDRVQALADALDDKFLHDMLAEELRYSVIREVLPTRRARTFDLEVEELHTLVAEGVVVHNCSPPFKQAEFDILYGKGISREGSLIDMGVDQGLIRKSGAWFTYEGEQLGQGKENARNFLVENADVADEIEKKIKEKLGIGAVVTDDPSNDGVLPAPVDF
Arbovirus anti: antivirals against arbovirus infection, primary screen, cell-based, full library, 10K replicate subset; arbovirus infection cell-based antiviral screen; inhibition, % at 10 µM; 0.37% of 200,000 active;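 active = inhibition from about 30%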;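 note: bluetongue infection of BSR cells; cell survival read as ATP light after 72 h; 0% = infected wells without compound and 100% = uninfected wells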
Starred values were filed as active, the others as inactive; ? = inconclusive; / = not tested or not shown. An excerpt. The share of hits here may be higher or lower than overall.

#1 COc1ccc(NCC(=O)N2CCCC2)cc1Cl
#2 Cc1cccc(NC(=O)C(C)n2cc([N+](=O)[O-])cn2)n1 (stereo unspecified)
#3 CCCCc1ccc(S(=O)(=O)NC2CCS(=O)(=O)C2)cc1 (stereo unspecified)
#4 Cc1cc(CNC(=O)C2CCC(=O)N(Cc3cccc(C(F)(F)F)c3)C2)no1 (stereo unspecified)
#5 CCOC(=O)C1CCN(C(=O)c2ccc3c(c2)NC(=O)/C(=C\c2ccc(C)cc2)S3)CC1
#6 Cc1ccc(N2CCN(C(=S)Nc3ccccc3)CC2)cc1
screen / no.	1	2	3	4	5	6
Mtb growth	?	3.3%	-3.3%	/	/	-4.1%
Mtb bLac sens	-3.0	-6.4	-3.0	-1.6	98.1	-3.8
YopH inh	/	/	/	/	/	/
RecA intein inh	-0.4	3.2	0.3	-2.0	-20.2	0.2
Arbovirus anti	6.1	-2.6	/	/	/	4.1

#7 O=C(CSc1nnc(-c2ccccn2)n1Cc1ccccc1)N1CCOCC1
#8 C(=N\Nc1nc(Nc2ccccc2)nc(N2CCOCC2)n1)/c1c[nH]c2ccccc12
#9 CCN(CC)CCC(c1cc(OC)c(OC)c(OC)c1)c1c(OC)cc(OC)c2c(C)cc(=O)oc12 (stereo unspecified)
#10 C=CCn1c(C)cc(-c2csc(NC(=O)CCc3nc4ccccc4c(=O)[nH]3)n2)c1C
#11 O=C(CSc1nccn1-c1ccccc1)NCc1ccc2c(c1)OCO2
#12 COC(/C(=N/O)c1ccc(Cl)cc1)c1ccccc1 (stereo unspecified)
screen / no.	7	8	9	10	11	12
Mtb growth	-0.3%	-8.4%	-8.4%	/	-3.3%	/
Mtb bLac sens	2.5	46.4	-2.3	4.4	-11.7	-5.4
YopH inh	/	-23.6	/	/	-28.2	/
RecA intein inh	0.2	-4.1	-0.9	-0.2	1.8	5.3
Arbovirus anti	4.0	-1.7	/	/	5.8	/

#13 Cc1ccc(C(=O)NNC(=O)c2ccc3ncccc3c2)cc1
#14 COc1ccc(C(=O)NC(=S)N2CCN(c3ccccc3OC)CC2)cc1
#15 O=C(CN(c1cccc(Cl)c1)S(=O)(=O)c1ccccc1)NN=C1CCCC1
#16 CC(C)NC(=O)C(=O)N/N=C/c1ccco1
#17 Cn1cc(C(=O)N2CCCCC2)c(=O)c2cc(S(=O)(=O)N3CCCC3)ccc21
#18 C/C(=N\NS(=O)(=O)c1ccc(C)c([N+](=O)[O-])c1)c1cccs1
screen / no.	13	14	15	16	17	18
Mtb growth	7.8%	/	8.0%	17.8%	/	3.1%
Mtb bLac sens	/	0.5	-0.7	8.4	-10.3	-1.4
YopH inh	/	/	/	-37.9	/	/
RecA intein inh	-0.3	1.4	2.4	-1.4	0.4	-0.3
Arbovirus anti	0.5	/	1.3	3.1	/	4.2

#19 CCN(C(=O)CSc1nc2ccccc2c(=O)n1CCOC)C1CCS(=O)(=O)C1 (stereo unspecified)
#20 CC(C)n1nnnc1SCC(=O)NCc1ccco1
#21 CCOCCCN(C(=O)Cn1nnc(-c2ccc(OC)c(OC)c2)n1)C(C(=O)NCC1CCCO1)c1ccc(F)cc1 (stereo unspecified)
#22 O=C(CSc1nc2[nH]ncc2c(=O)[nH]1)NCc1ccc(F)cc1
#23 CC(=O)NCCNc1nc2c(-c3cccc(C)c3)nnn2c2ccccc12
#24 COc1ccccc1NC(=O)c1c(C)cc(=O)oc1C
screen / no.	19	20	21	22	23	24
Mtb growth	1.9%	-13.6%	/	-0.9%	/	-2.7%
Mtb bLac sens	-2.7	4.2	3.6	-3.5	5.4	-2.0
YopH inh	/	-16.1	/	-32.0	/	-30.7
RecA intein inh	0.1	-3.3	1.4	1.1	-10.4	4.1
Arbovirus anti	-0.9	0.8	/	2.6	/	9.6

#25 O=C(Cn1ccccc1=S)c1ccc(Cl)c(Cl)c1
#26 c1ccc(-c2noc(-c3ccco3)n2)nc1
#27 COC(=O)c1cc(=O)n(Cc2ccc(F)cc2)c(=NCc2ccc(F)cc2)s1
#28 COc1ccc(-n2c(Cc3cccn3C)nnc2SCC(=O)NCCc2ccccc2)cc1
#29 O=[N+]([O-])c1ccc(NC2CCN(Cc3ccccc3)CC2)c2ccncc12
#30 C=CCn1c(SCC(=O)Nc2sccc2C(N)=O)nc2sc(CC)cc2c1=O
screen / no.	25	26	27	28	29	30
Mtb growth	/	11.4%	6.7%	0.2%	/	1.6%
Mtb bLac sens	-13.1	1.0	7.0	-1.6	1.2	-18.9
YopH inh	/	-18.2	/	-52.7	/	-15.4
RecA intein inh	-0.3	-0.6	/	-5.4	-0.3	-1.8
Arbovirus anti	/	-6.2	-0.7	-3.0	/	-4.7

Reprinted at random: six entries already listed.
#26 c1ccc(-c2noc(-c3ccco3)n2)nc1
#3 CCCCc1ccc(S(=O)(=O)NC2CCS(=O)(=O)C2)cc1 (stereo unspecified)
#17 Cn1cc(C(=O)N2CCCCC2)c(=O)c2cc(S(=O)(=O)N3CCCC3)ccc21
#13 Cc1ccc(C(=O)NNC(=O)c2ccc3ncccc3c2)cc1
#2 Cc1cccc(NC(=O)C(C)n2cc([N+](=O)[O-])cn2)n1 (stereo unspecified)
#24 COc1ccccc1NC(=O)c1c(C)cc(=O)oc1C
screen / no.	26	3	17	13	2	24
Mtb growth	11.4%	-3.3%	/	7.8%	3.3%	-2.7%
Mtb bLac sens	1.0	-3.0	-10.3	/	-6.4	-2.0
YopH inh	-18.2	/	/	/	/	-30.7
RecA intein inh	-0.6	0.3	0.4	-0.3	3.2	4.1
Arbovirus anti	-6.2	/	/	0.5	-2.6	9.6

Other entries:
#31 CCc1ccc2[nH]c(=O)c(CN(CCN(CC)CC)C(=O)Nc3ccccc3OC)cc2c1
#32 CN(/N=C/c1ccncc1)c1cnc2ccccc2n1
#33 CC(C)CCN1CCN(Cc2cc(F)ccc2-n2cccn2)CC1CCO (stereo unspecified)
#34 Cc1ccc(-n2c(O)c(C=NCCN3CCNCC3)c(=O)[nH]c2=S)cc1
#35 CCc1ccc(C(C(=O)NC2CCCCC2)N(C(=O)c2ccccn2)c2cccnc2)cc1 (stereo unspecified)
#36 OCCNCCCCOc1ccc(OCc2ccccc2)cc1
screen / no.	31	32	33	34	35	36
Mtb growth	2.4%	5.2%	4.8%	/	-4.2%	-5.5%
Mtb bLac sens	-4.8	/	7.5	-5.6	-1.5	?
YopH inh	-13.5	/	/	/	/	-19.3
RecA intein inh	0.1	-8.0	-2.7	-4.4	-2.1	-0.7
Arbovirus anti	-13.6	3.0	9.5	/	-4.2	-3.1

#37 CCOC(=O)Cn1ncc2c(=O)oc3ccccc3c21
#38 CCOC(=O)CNC(=O)CNC(=O)c1ccc(OC)cc1
#39 CC(CCc1ccccc1)NC(=O)N1CCOCC1 (stereo unspecified)
#40 COCCNC(=O)c1csc2c1CCCC2
#41 Cc1noc(/C=C/N(C)C)c1S(=O)(=O)N1CCC(C(=O)Nc2ccc(Cl)cc2)CC1
#42 C/C(=C\C(=O)O)C12CC3CC(CC(C3)C1)C2
screen / no.	37	38	39	40	41	42
Mtb growth	-5.6%	-5.1%	-4.4%	18.2%	/	-2.8%
Mtb bLac sens	-3.6	-4.2	-1.0	4.7	-4.0	22.2
YopH inh	-32.4	-18.9	-9.7	-28.8	/	-51.6
RecA intein inh	-1.2	-1.2	-4.3	0.6	0.7	-2.8
Arbovirus anti	3.3	2.6	-6.3	-0.6	/	9.9

#43 Cc1ccc(S(=O)(=O)NC(=O)c2ccccc2F)cc1
#44 NC(=O)NC(=O)COC(=O)CCCCCNS(=O)(=O)c1ccc2c(c1)OCCO2
#45 CCOC(=O)c1c(-c2ccc(C)o2)csc1NC(=O)CN1CCOCC1
#46 COCc1cc(OC(=O)N(C)C)nc(-c2ccc(C)c(Cl)c2)n1
#47 COc1ccc(CCNC(=O)c2cc(-c3cc(Cl)cc(Cl)c3)oc2C)cc1
#48 CNC(=O)c1c(NC(=O)c2ccc(S(=O)(=O)N3CCCC3)cc2)sc2c1CCN(C(C)C)C2
screen / no.	43	44	45	46	47	48
Mtb growth	/	1.7%	8.9%	5.2%	-1.0%	/
Mtb bLac sens	-15.5	0.9	-6.5	-0.1	-5.6	4.9
YopH inh	/	/	-4.7	/	-41.1	/
RecA intein inh	0.9	0.3	3.0	-2.5	-7.9	-4.5
Arbovirus anti	/	7.7	0.5	/	-1.9	/

#49 O=C(Nc1ccc(O)c2c(=O)cc(-c3cccc(Cl)c3)oc12)c1cccc(Cl)c1
#50 O=C(OCc1ccccc1C(F)(F)F)c1cc([N+](=O)[O-])ccc1N1CCOCC1
#51 O=C1Nc2ccccc2C1Cc1nc2ccccc2c(=O)n1-c1ccccc1 (stereo unspecified)
#52 CCNc1nc(SC(C(C)=O)C(C)=O)nc(N(C)C)n1
#53 O=C(NCCc1ccccc1)C1CCN(S(=O)(=O)c2ccccc2)CC1
#54 COCCCn1c(=O)c2ccccc2c2ccccc2c1=O
screen / no.	49	50	51	52	53	54
Mtb growth	-0.9%	/	5.7%	-10.1%	1.9%	-1.8%
Mtb bLac sens	1.4	-1.0	6.5	-7.3	-11.7	5.7
YopH inh	/	/	/	-22.6	-20.0	-31.2
RecA intein inh	-1.3	6.5	6.2	-1.1	-0.8	2.2
Arbovirus anti	/	/	/	6.0	8.5	4.5

#55 CCOC(=O)C1CCCN(Cc2cc(OC)c(O)c(OC)c2)C1 (stereo unspecified)
#56 COc1ccc(CCN2CCC(Nc3nc4ccccc4n3Cc3ccc(F)cc3)CC2)cc1
#57 Cc1ccc(NC(=O)NCc2ccncc2)cc1Cl
#58 CCCCn1c(SCc2ccc(C(=O)OC)o2)nc2cc(S(N)(=O)=O)ccc21
#59 c1ccc(-c2nc(NCc3cccs3)c3ccccc3n2)cc1
#60 C=C(Br)CN1CCN(CC(=C)Br)CC1
screen / no.	55	56	57	58	59	60
Mtb growth	-4.9%	75.2%	2.1%	-3.7%	/	-2.4%
Mtb bLac sens	11.1	99.6	2.6	68.8	32.1	-12.3
YopH inh	-22.4	-20.4	/	-32.8	/	-15.3
RecA intein inh	-9.8	2.3	-1.4	-0.4	17.6	-1.1
Arbovirus anti	3.9	-44.5	0.8	4.5	/	-0.1

#61 O=S(=O)(Cc1cc(N2CCOCC2)nc(-c2ccccn2)n1)c1ccccc1
#62 CC(=O)N1CCN(c2ccc(NC(=S)NC(=O)c3ccc(C)c([N+](=O)[O-])c3)cc2)CC1
#63 Cc1[nH]c(=O)[nH]c(=O)c1S(=O)(=O)Nc1ccc(Cl)c([N+](=O)[O-])c1
#64 CCCc1nc(SCC(=O)c2ccc(F)cc2)c2ccccc2n1
#65 Cn1c2ccccc2c2cc(C(=O)NNC(=O)CCl)sc21
#66 CCc1nnc(NC(=O)CCC(=O)N2CCCC(O)C2)s1 (stereo unspecified)
screen / no.	61	62	63	64	65	66
Mtb growth	2.6%	9.9%	/	8.4%	?	/
Mtb bLac sens	3.9	0.9	3.0	0.7	98.6	3.9
YopH inh	/	/	/	/	/	/
RecA intein inh	-4.8	0.9	0.9	4.0	32.7*	-0.3
Arbovirus anti	-9.2	/	/	15.0	-17.3	/

#67 COc1ccc(C(=O)NCCn2cc(SCC(=O)NCc3ccco3)c3ccccc32)cc1
#68 Clc1ccc(Oc2nc3c(Cl)cccc3s2)cc1Cl
#69 C=C(C)c1sc(-c2ccccc2)nc1C
#70 CC(=O)N(CN1C(=O)c2ccc([N+](=O)[O-])cc2C1=O)c1cccc(C(=O)O)c1
#71 CN(C)C(CNc1ncnc2ccccc12)c1c(F)cccc1Cl (stereo unspecified)
#72 Cc1nc2ccc(NC(=O)c3cccc(S(=O)(=O)N4CC(C)OC(C)C4)c3)cc2s1 (stereo unspecified)
screen / no.	67	68	69	70	71	72
Mtb growth	5.2%	-1.5%	-11.2%	16.4%	/	9.1%
Mtb bLac sens	4.9	-13.2	-10.1	7.6	3.5	2.8
YopH inh	-36.5	/	/	/	/	-35.4
RecA intein inh	-1.8	2.6	1.5	-6.6	1.5	12.4
Arbovirus anti	-2.0	/	/	16.9	/	-1.0

#73 CN(C)c1ccnc(Nc2ccc(F)cc2)c1C#N
#74 CCOc1ccccc1NC(=O)COc1cccc(-n2cnnn2)c1
#75 CC(C)CN(C(=O)COC(=O)c1ccc(Br)cc1)c1c(N)n(Cc2ccccc2)c(=O)[nH]c1=O
#76 Oc1c(CN2CCOCC2)ccc2ccccc12
#77 CC1Cc2ccccc2N1C(=O)C1CCCCN1S(=O)(=O)c1ccccc1 (stereo unspecified)
screen / no.	73	74	75	76	77
Mtb growth	4.4%	3.9%	/	-7.5%	-0.2%
Mtb bLac sens	-2.1	7.9	-4.3	/	?
YopH inh	/	-40.4	/	/	-14.4
RecA intein inh	/	-2.1	-0.6	14.9	0.5
Arbovirus anti	-2.4	-2.4	/	-8.4	11.5
